Compound activity (PubChem BioAssay)
HTT prom inh: inhibitors of huntingtin promoter activity | HEK293 HTT promoter firefly luciferase reporter (activity 0% = vehicle and -100% = no light), 24 h | Potency, µM (titrated, usually from 57.5 µM), without a hit: top-dose activity change, negative = inhibition, actives largely listed as inhibitors | 48,000 tested, 0.93% active; active = well fitted inhibition curve with a large enough effect; inconclusive = small, poorly fitted or top-dose-only effect; inactive = no such curve, though single readings can be large or run the other way; also: nearly all actives have a fitted effect of over 50% in size
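HEK293 luciferase promoter-reporter cells (2,500/well) plated 24 h, then compounds added at up to 57.5 uM final for 24 h at 37 °C. Firefly luminescence by Dual-Glo, normalized to vehicle (0%) and zero RLU (-100%).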
PMP22 txn prim: PMP22 gene transcription modulation | S16 Pmp22-F2sN Schwann cells (luciferase reporters placed in the Pmp22 gene), FLuc/NLuc coincidence luminescence, 24 h | Potency, µM (titrated, usually from 57.5 µM), for the others: top-dose activity change, negative = inhibition, actives largely listed as inhibitors | 43,000 tested, 2% active | AID 1508649; active = clear falling dose curves in both reporters; inconclusive = both reporters move, but less clearly or upward; inactive = either reporter flat; the % is the NLuc reporter signal; also: % is scaled to controls: 0 for no effect and ±100 for the full control effect; some results filed as inactive show a strong effect at the top dose
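Schwann cells carrying the coincidence reporter were exposed to library compounds for 24 h at 37C, then lysed and read for FLuc and, after quenching, NLuc luminescence on a CCD imager.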
Numbers without * were called inactive; ? = inconclusive; nt = no result given; [ ] = dose if it differs, or a comment. Potency is read from the fitted curve at half-maximal effect.

molecule	HTT prom inh	PMP22 txn prim
C=Cc1ccc(Cn2c(=O)cc(C)c3c(C)nn(-c4ccccc4)c32)cc1	-11.9%	-22.8%
COc1cc(OC)c(NC(=O)Cn2c(=O)cc(C(F)(F)F)c3c(C)nn(C)c32)cc1Cl	-4.5%	-20.8%
COc1c(Cl)cc(Cl)cc1C(=O)Nc1cccc(-c2nc3ccccc3o2)c1C	-12.9%	?
COc1ccccc1/C=C(\C#N)c1nc(-c2cc3ccccc3oc2=O)cs1	7.1%	-1.2%
O=C(Nc1nonc1-c1ccc(Br)cc1)c1ccco1	?	-2.7%
Cc1ccc(N(CC(=O)N2CCN(c3cccc(Cl)c3)CC2)S(=O)(=O)c2c(C)noc2C)cc1	?	?
Cc1ccc(CNC(=O)c2nnc(Cc3cccc(F)c3)o2)cc1	-14.0%	1.5%
N#Cc1ccccc1NC(=O)C(=O)NCCc1csc(-c2ccc(F)cc2)n1	-14.5%	-28.9%

Carrying on:
molecule	HTT prom inh	PMP22 txn prim
CCOc1ccc(NC(=O)N2CCN(c3ccc(Cl)c(Cl)c3)CC2)cc1	?	?
CCOc1ccc(CNS(=O)(=O)c2ccc(-c3cc(C(F)(F)F)on3)s2)cc1	-11.5%	-20.7%
CCOc1ccc(OCC(=O)Nc2c(C(=O)Nc3ccc(C)cc3)oc3ccccc23)cc1	0.8%	-22.8%
COc1ccc(Cl)cc1C(=O)Nc1nnc2n1CCS2	-2.2%	-22.9%
O=C(Nc1ccc(C(=O)OCc2cc(=O)n3c4c(sc3n2)CCCC4)cc1)c1ccc(Cl)cc1	-7.6%	?
COCCNC(=O)CN1C(=O)CCn2nc(-c3cn(C)c4ccccc34)cc21	-17.4%	-20.1%
CCOc1cc(N2CCC(O)CC2)ccc1Nc1ncc2c(n1)N(C)c1ccccc1C(=O)N2C	23.6%	nt
CCOc1ccc(CCNC(=O)CCCc2nnc3n(C)c(=O)c4sccc4n23)cc1OCC	-9.6%	-3.7%

(cont.)
molecule	HTT prom inh	PMP22 txn prim
Oc1ccc(-c2nc3ccc(Cl)cn3c2Nc2ccc(Cl)cc2)cc1	-12.2%	?
COc1ccc(-c2nsc(NC(=O)c3oc4ccccc4c3C)n2)cc1	7.2%	-3.3%
Cc1ccc(-n2c(C)cc(C(=O)C(=O)Nc3ccccc3)c2C)c(C)c1	?	?
Cc1ccccc1NC(=O)c1ccc(F)c(S(=O)(=O)N(C)Cc2ccccc2)c1	?	-8.1%
O=C(Nc1sc2c(c1C(=O)NCC1CCCO1)CCCC2)c1cc(=O)c2ccccc2o1 (centres undefined)	-4.6%	4.9%
CCOc1ccc(-c2cc(C(=O)NC(C)c3ccccc3)c3ccccc3n2)cc1 (centres undefined)	4.4%	-12.7%
COc1cccc(CNc2nc3c(-c4cccc(C)c4)nnn3c3ccccc23)c1	1.9%	?
CCOc1ccc(C(=O)NCCc2sc(-c3ccc(F)cc3)nc2C)cc1	?	-13.6%

Next part:
molecule	HTT prom inh	PMP22 txn prim
COc1ccc(-c2nc(CS(=O)CC(=O)NCc3ccc(F)cc3)c(C)o2)cc1OC (centres undefined)	-9.3%	-1.5%
Nc1nc(Nc2cccc(C(F)(F)F)c2)sc1C(=O)c1ccccc1	7.1%	6.7%
COc1cccc(C2C(=O)N(C3CCCCC3)CC(=O)N2CCc2ccc(OC)c(OC)c2)c1 (centres undefined)	-10.8%	-9.5%
CCOC(=O)C1CCN(C(=O)c2ccc3c(c2)N=C(CC)c2cc(C)ccc2S3)CC1	?	-35.3%
COc1cccc(NC(=O)Cn2cc(S(=O)(=O)N3CCCC3)c(S(=O)(=O)N3CCCC3)c2)c1	-14.3%[11.5 µM]	34.9%
Cc1ccc(C)c(Cn2c(=O)c3c(nc4n3CCN4c3ccccc3)n(C)c2=O)c1	-5.1%	-21.6%
Cc1cccc(N2CCN(C(=O)c3nn(C)c4c3CS(=O)(=O)c3ccccc3-4)CC2C)c1 (centres undefined)	?	?
CCOC(=O)Cn1c(=O)oc2cc(S(=O)(=O)N3CCN(c4cc(C)ccc4C)CC3)ccc21	-8.5%	-11.5%

(cont.)
molecule	HTT prom inh	PMP22 txn prim
CC1=C(C(N)=O)C(c2ccccc2F)n2nc(-c3ccc(Cl)cc3)nc2N1 (centres undefined)	6.6%	?
Cc1ccc2nc(-c3ccc(O)cc3)c(Nc3ccc4c(c3)OCO4)n2c1	8.1%	-51.8%
O=C1c2c(O)cccc2Cc2cccc(O)c21	16.8%	nt
CCc1ccc2oc(-c3cc(NC(=O)c4cccnc4)cc(C)c3O)nc2c1	4.0%	?
Cc1ccc(S(=O)(=O)c2cnc(SCC(=O)Nc3ccc4c(c3)OCCO4)[nH]c2=O)cc1C	-4.9%	-38.9%
COc1ccc(CNC(=O)C(=O)NCC(c2ccco2)S(=O)(=O)c2ccc(C)cc2)cc1 (centres undefined)	?	?
Cc1c(NC(=O)c2cc(-c3ccc(Cl)cc3)on2)c(=O)n(-c2ccccc2)n1C	-27.9%	18.9%
CCOCN(C(=O)Cn1c(CC(C)C)nc2ccccc21)c1c(C)cccc1CC	-19.2%	?

The list goes on.
molecule	HTT prom inh	PMP22 txn prim
O=S(=O)(c1ccc(Cl)cc1)c1nc(-c2cccs2)oc1N1CCCCC1	?	?
Cc1cccc(NC(=O)Nc2nnc(N3CCCC3)s2)c1	14.2%	-0.6%
O=C(NC1CCCCC1)c1ccc(Cn2c(SCc3ccc(F)cc3)nc3cccnc32)cc1	6.2%	?
Cc1cccc(C)c1NC(=O)C(=O)NCC(c1ccc2c(c1)OCO2)N1CCOCC1 (centres undefined)	-26.4%	-19.3%
COc1ccc2sc(N(Cc3cccnc3)C(=O)C3COc4ccccc4O3)nc2c1 (centres undefined)	-3.1%	-8.9%
CCN1C(=O)c2ccccc2S(=O)c2ccc(C(=O)N3CCN(c4ccc(F)cc4)CC3)cc21 (centres undefined)	-18.9%	?
CC(=O)c1c(C)oc2ccc(N(C(=O)c3ccncc3)S(=O)(=O)c3ccc(C)cc3C)cc12	28.2µM*	?
CCc1ccc(NC(=O)CSc2nc3ccccc3nc2Cc2ccc(C)cc2)cc1	0.9%	-15.5%

Three records drawn at random from the list so far, as already listed:
molecule	HTT prom inh	PMP22 txn prim
O=C(Nc1nonc1-c1ccc(Br)cc1)c1ccco1	?	-2.7%
CCOc1cc(N2CCC(O)CC2)ccc1Nc1ncc2c(n1)N(C)c1ccccc1C(=O)N2C	23.6%	nt
COc1cccc(NC(=O)Cn2cc(S(=O)(=O)N3CCCC3)c(S(=O)(=O)N3CCCC3)c2)c1	-14.3%[11.5 µM]	34.9%

Later entries.
molecule	HTT prom inh	PMP22 txn prim
CSc1nnc(NC(=O)Cc2coc3cc(C)ccc23)s1	15.4%	25.2%
CCN1c2ccccc2-c2nc(SCC(=O)Nc3cccc(C)c3C)ncc2S1(=O)=O	?	?
Cc1ccc(NC(=O)c2ccc3nc(Cc4ccccc4)oc3c2)cc1F	-17.1%	-37.1%
CC[N+](CC)(CCNC(=O)C(=O)NCC[N+](CC)(CC)Cc1ccccc1Cl)Cc1ccccc1Cl	12.7%	nt
CCN1CCCC(OC(=O)C(c2ccccc2)c2ccccc2)C1 (centres undefined)	-0.7%	nt
Cc1cc2n(n1)CCCN2C(=O)Nc1ccc(F)c(Cl)c1	-1.1%	-4.3%
COc1cc(OC)cc(C(=O)Nc2ccc3nc4n(c(=O)c3c2)CCCCC4)c1	69.2%[activator]	-4.3%
CCOC(=O)c1cccc(NC(=O)C2CCCN(S(=O)(=O)c3cc(Br)cc4c3N(C(=O)CC)CC4)C2)c1 (centres undefined)	-4.9%	-21.9%

(continued)
molecule	HTT prom inh	PMP22 txn prim
COc1ccccc1OCC(=O)N(Cc1cccs1)C1CCS(=O)(=O)C1 (centres undefined)	-16.1%	?
COc1cccc(/C=C(\C#N)c2nc3ccc(C)cc3[nH]2)c1	25.7%	?
Cc1cc(C)c(C(=O)Nc2ccccc2)c(SCC(=O)Nc2ccc(Br)cc2C)n1	?	?
Cc1cccc(CCNC(=O)c2cc3c(=O)[nH]c4ccc(C)cc4c3s2)c1	-3.4%	-5.8%
Cc1nc2nc(CNC(=O)c3cccc(F)c3)nn2c(C)c1CCC(=O)Nc1cccc(Cl)c1	5.7%	-19.0%
COc1cc2c(cc1OC)C(COc1ccc(F)cc1)N(C(=O)C(C)C)CC2 (centres undefined)	-24.1%	-5.2%
CN(C)c1ccc(C(CNS(=O)(=O)c2ccc(F)cc2)N2CCc3ccccc32)cc1 (centres undefined)	-21.6%	-28.4%
Cc1ccc2c(c1)-c1c(cnn1CC(=O)N1CCN(c3cc(C)ccc3C)CC1)CO2	-17.6%	-15.0%

(more compounds)
molecule	HTT prom inh	PMP22 txn prim
CCOc1ccccc1CNC(=O)c1ccc2c(c1)nc1n2CCC(C)C1 (centres undefined)	6.3%	-14.7%
CCCCN(CC)CCCNC(=O)c1ccc2c(c1)NC(=O)CN2C	-10.7%	-18.5%
O=C(COc1ccc(Cl)cc1)Nc1ccccc1C(=O)OCc1cc(=O)n2ccsc2n1	5.7%	-50.9%
Cc1ccc(N2C(=O)CSC23C(=O)N(CC(=O)Nc2ccc(C)cc2C)c2ccccc23)cc1 (centres undefined)	?	-3.1%
Cc1ccc(-c2nc(SCCOc3ccccc3C)n3[nH]c(=O)cc3n2)cc1	-2.3%	1.5%
CCN(CC)C(=O)CSc1nc2cc3c(cc2c(=O)n1CCCC(=O)NCc1ccc(OC)cc1)OCO3	-17.4%	15.6%
COc1ccc(SCc2cc(=O)c3ccc(C)c(C)c3[nH]2)cc1	3.4%	9.7%
COc1ccccc1N1CCN(c2nc3c(S(=O)(=O)c4ccccc4)nnn3c3ccc(Cl)cc23)CC1	4.1%	-4.9%

Continued:
molecule	HTT prom inh	PMP22 txn prim
Cc1cccc(N2CCN(C(=O)c3c4c(nc5ccccc35)C(=O)N(C3CCCCC3)C4)CC2)c1C	-6.7%	?
COc1cccc(N2CCN(C(=O)c3cnn(-c4ccc(C)cc4C)c3C3CCN(C(=O)OC(C)(C)C)CC3)CC2)c1	?	?
COC(=O)c1ccc(NS(=O)(=O)c2ccc(-n3cccn3)cc2)cc1	-17.0%	7.6%
O=C(CSc1cn(CC(=O)N2CCCCC2)c2ccccc12)NCc1ccccc1	-30.4%	?
CCOc1ccc(C(=O)c2cn(CC(=O)Nc3ccc(C)c(Cl)c3)c3ccc(OCC)cc3c2=O)cc1	-11.4%	?
COc1ccc(N2CC(NC(=O)c3ccco3)CC2=O)cc1 (centres undefined)	3.6%	7.5%
c1cc(-c2cnn3cc(-c4ccc(OCCN5CCCCC5)cc4)cnc23)ccn1	-22.2%	nt
CC(C)NC(=O)c1sc2ncccc2c1-n1cccc1	6.2%	6.9%

New compounds follow:
molecule	HTT prom inh	PMP22 txn prim
COC(=O)c1ccccc1NC(=O)Cn1nc(C(F)(F)F)c2c1CCCC2	?	-29.9%
CC(C)N(Cc1ccccc1)C(=O)CN1C(=O)COc2ccc(S(=O)(=O)NC3CCCC3)cc21	-7.8%	-5.3%
O=C(CC1C(=O)N(c2ccccc2)C(=O)N1CCc1cccs1)Nc1ccc(F)cc1 (centres undefined)	?	5.0%
COc1cccc(-c2nc(SCC(=O)Nc3ccc4c(c3)OCO4)c(-c3ccccc3)[nH]2)c1	?	?
COc1ccc(CNC(=O)c2nn(C)c3c2CS(=O)(=O)c2ccccc2-3)cc1	-11.2%	15.4%
CC1CCN(S(=O)(=O)c2ccc3c(c2)N(CC(=O)N2CCN(c4ccc(Cl)cc4)CC2)C(=O)CO3)CC1	-24.4%	?
Cc1ccccc1C(=O)Nc1nnc(S(=O)(=O)N2CCCCCC2)s1	-6.1%	8.7%
Cc1cccc(CCNC(=O)C2CCN(c3nc4ccccc4nc3C(F)(F)F)CC2)c1	-10.0%	?

The results go on.
molecule	HTT prom inh	PMP22 txn prim
CC(C)(C)c1ccc(OCCOCCn2c(-c3ccc(Cl)cc3)nc3ccccc3c2=O)cc1	-3.9%	5.8%
Cc1nn(CC(=O)N2CCN(c3ccccc3)CC2)c(=O)c2cc3sccc3n12	6.8%	-6.6%
CCCN(CCC)CCCNC(=O)c1cc2c(-c3ccc(Cl)cc3)nn(C)c2s1	0.1%	?
O=C(NCC(c1cccnc1)N1CCN(c2ccccc2F)CC1)c1ccc(F)cc1 (centres undefined)	?	-17.7%
CCOc1cc2[nH]c(=O)n(CCCC(=O)N3CCN(c4ccc(OC)cc4)CC3)c(=O)c2cc1OCC	-22.6%	?
COc1ccc(-c2nc(CSCC(=O)NCCc3ccc(C)cc3)c(C)o2)cc1OC	-26.5%	-1.9%
COC(=O)c1ccc(-n2nnc(-c3nsc(NC(=O)c4ccc(Cl)cc4)n3)c2C)cc1	-3.6%	-4.3%
CCOc1cccc(NC(=O)C2CC(=O)N(C)C(=Nc3ccc(OC)cc3)S2)c1 (centres undefined)	-21.3%	-18.2%
Cc1ccc(N2CC(NC(=O)c3ccc(S(=O)(=O)N(C)C)cc3)CC2=O)cc1C (centres undefined)	-28.6%	18.1%
CCCN1C(=O)c2[nH]nc(-c3ccccc3)c2C1c1cccc(O)c1 (centres undefined)	-8.0%	-3.3%
